Assay outcomes: PubChem BioAssay, National Center for Advancing Translational Sciences (NCATS)
hNpr1 antagonist: antagonists of human natriuretic peptide receptor Npr1; P16066; HEK293 hNpr1 GloSensor cGMP, ANP-stimulated luminescence; Potency, µM (series often up to 46.3 µM), inactives show at the top dose activity change, negative = inhibition, hits mostly inhibitors; 1.6% of 76,000 active; AID 1347048; active = well fitted inhibition curve with a large enough effect; inconclusive = small, poorly fitted or top-dose-only effect; inactive = no such curve, though single readings can be large or run the other way;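 further: nearly all actives have a fitted effect of over 60% in size; nearly all hits also lower the signal before the agonist is added; a reference antagonist and vehicle were the controls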
Target sequence (P16066 whole entry, looked up): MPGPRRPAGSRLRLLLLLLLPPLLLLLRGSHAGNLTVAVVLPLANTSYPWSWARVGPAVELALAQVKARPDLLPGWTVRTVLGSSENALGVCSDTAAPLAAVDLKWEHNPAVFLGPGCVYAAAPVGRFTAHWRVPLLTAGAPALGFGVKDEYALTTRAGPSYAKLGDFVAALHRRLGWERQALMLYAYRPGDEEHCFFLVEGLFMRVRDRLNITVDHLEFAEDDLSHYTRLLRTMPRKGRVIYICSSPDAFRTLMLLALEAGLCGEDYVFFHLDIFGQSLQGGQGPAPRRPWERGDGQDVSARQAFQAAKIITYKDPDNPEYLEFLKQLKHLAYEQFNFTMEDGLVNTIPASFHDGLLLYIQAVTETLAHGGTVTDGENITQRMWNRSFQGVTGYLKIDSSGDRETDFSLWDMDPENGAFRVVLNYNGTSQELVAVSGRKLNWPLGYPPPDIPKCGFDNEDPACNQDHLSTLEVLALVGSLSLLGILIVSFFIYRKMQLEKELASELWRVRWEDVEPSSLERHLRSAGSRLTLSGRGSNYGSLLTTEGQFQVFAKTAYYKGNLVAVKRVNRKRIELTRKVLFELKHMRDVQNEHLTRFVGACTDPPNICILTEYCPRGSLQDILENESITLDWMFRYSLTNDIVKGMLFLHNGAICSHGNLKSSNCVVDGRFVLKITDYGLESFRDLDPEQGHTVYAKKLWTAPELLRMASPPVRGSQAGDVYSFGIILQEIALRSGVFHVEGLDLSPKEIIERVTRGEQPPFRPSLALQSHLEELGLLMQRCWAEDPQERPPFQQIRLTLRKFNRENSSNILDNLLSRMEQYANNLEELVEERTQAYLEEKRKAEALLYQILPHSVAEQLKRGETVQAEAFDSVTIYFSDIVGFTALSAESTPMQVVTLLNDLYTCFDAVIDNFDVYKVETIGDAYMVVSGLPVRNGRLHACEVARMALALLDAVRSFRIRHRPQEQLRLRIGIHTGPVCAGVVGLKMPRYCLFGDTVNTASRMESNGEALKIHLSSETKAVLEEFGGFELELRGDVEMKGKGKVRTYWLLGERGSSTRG
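Compound pre-incubated 30 min at room temperature on GloSensor-loaded HEK293 cells stably carrying hNpr1 and the pGS-40F cGMP biosensor. Stimulation uses hNppA at 0.1 nM final; luminescence is taken at baseline and 20 min post-agonist.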
Starred values were filed as active, the others as inactive; ? = inconclusive; [ ] = another dose, or the depositor's remark. On the % scale 0 is the no-effect control and ±100 the full control effect; potency means the concentration at half of the fitted maximal effect. Only part of the results is shown. The share of hits here may be higher or lower than overall.

SMILES,hNpr1 antagonist
CCNC(=O)N1CCC(c2noc(-c3ccccn3)n2)C1 (stereo unspecified),5%
O=C(NCc1cccnc1)[C@H]1C[C@@H](O)[C@H](O)[C@@H]2N=C(Nc3ccc(Cl)cc3)S[C@@H]21,1%[70.6 µM]
COC(=O)c1ccc2nc(C[C@@H]3C[C@@H](C(C)C)[C@H](CNC4CCOCC4)C=C3C)[nH]c2c1,1%
Cc1ccc(-c2ccc3nnc(CNC(=O)CCC4CCCC4)n3n2)cc1,2%
O=C(COc1ccc(F)cc1)N1CCC(N2CC3CC(C2)[C@H]2CCCC(=O)N2C3)CC1 (stereo partly specified),-1%
Cc1noc([C@H]2CCN(C(=O)c3ccnn3C)C[C@H]2NC(=O)C2CC2)n1,-1%
COc1cccc(C(O)c2nc(C(=O)Nc3ccc(OC)c(OC)c3)c(C)o2)c1 (stereo unspecified),3%[70.6 µM]
CN(C)C[C@@H]1CN(S(C)(=O)=O)C[C@H]1NC(=O)c1ccnn1C,-2%
CC(=O)N1CCCC(c2[nH]ccc2C(=O)N2CCN(c3ncccn3)CC2)C1 (stereo unspecified),5%
COc1ccc(C(=O)N2CC(Oc3ccccc3-c3nc(-c4ccccc4)no3)C2)cc1,-17%
CN(Cc1nccn1C)Cc1c(C(=O)N2CCCCC2)nc2sccn12,2%
Cc1ccc2[nH]c(CN3CCNCC(C(=O)O)C3)nc2c1C (stereo unspecified),-1%
COCC(=O)NC[C@H]1O[C@H](Cc2cc(-c3ccc(F)cc3)on2)CC[C@@H]1O,-2%[70.6 µM]
Cc1cc(C)cc(N2CCC(NC(=O)c3ccc4[nH]ccc4c3)C2=O)c1 (stereo unspecified),-11%
CC(C)CNC(=O)C(C)(C)Oc1nn(C(C)C)c2ccc(CN3CCOCC3)cc12,-3%[70.6 µM]
CS(=O)(=O)c1ccc(CN2CCC[C@H]2c2nc(-c3ccc(-c4ccncc4)nc3)no2)cc1,6%
FC(F)(F)c1cccc(-c2cc(-c3cccnc3)c3cncn3c2)c1,-17%[70.6 µM]
O=C1CCCN1CC1CCCN(Cc2cc(F)ccc2-n2cccn2)C1 (stereo unspecified),7%
COc1cccc(S(=O)(=O)N2CCC(c3noc(-c4cnccn4)n3)C2)c1 (stereo unspecified),1%
COc1ccc(C(=O)N[C@@H]2CCC[C@@H]2C(=O)NCc2ccccn2)cc1,2%
O=C(CCc1ccccc1)NCC(=O)N1CCCCCNC(=O)CC1c1ccccc1 (stereo unspecified),10%
Cc1ccccc1C(=O)N1C(C(=O)N2CCCC2)COC12CCN(C(=O)Cc1ccccc1)CC2 (stereo unspecified),-2%
O=C(Nc1cccc(C(F)(F)F)c1)N1CCCC(Cn2cnc3cccnc32)C1 (stereo unspecified),-3%
O=C(Cc1ccccc1)NCC1CCCCC(=O)N1 (stereo unspecified),6%
CCS(=O)(=O)N1CCC2(CCC(=O)N(CC3CC3)CC2)CC1,0%
COc1ncc(CN2CCc3c(n(Cc4cccnc4)n(-c4ccccc4)c3=O)C2)cn1,-2%[70.6 µM]
COc1ccc(CCC(=O)N2CC[C@H](CO)[C@H](NC(=O)C3CC3)C2)cc1,7%
CCOC(=O)C1CCN(C(=O)c2cc(-c3ccncc3)cn2Cc2ccc(C)cc2)CC1,4%
CCOc1ccc2c(n1)CCN(C(=O)Cc1cccc(OC)c1)C2,0%
Cc1cc(F)ccc1OC1CN([S+](=O)([O-])c2ccccc2)C1,13%[70.6 µM]
CCN(CC)C(=O)[C@@H](C)C1CC[C@@]2(C)CC[C@H](NC(=O)COc3ccccc3)[C@@H](C)[C@@H]2[C@H]1O (stereo partly specified),-3%
COc1ccc(-c2ccc3c(c2)C(=O)N2CC[C@H](NC(=O)CSC)[C@H]2C(=O)N3)cc1,-2%[70.6 µM]
Cn1cc(C(=O)N2CCCCCCNC(=O)[C@@H]3CCC[C@@H]32)cn1,-4%
COc1cccc(S(=O)(=O)N2C[C@@H](Oc3ccccc3)C[C@@H]2C(=O)N2CCOCC2)c1,5%
COc1ccc(N2CC(C(=O)NCCc3ccc(F)cc3)NC2=O)cc1 (stereo unspecified),25%
CCN1C(=O)Cc2ccccc2C1C(=O)NCc1ccccc1Br (stereo unspecified),-23%
CCc1cc(NCCNC(=O)c2ccccc2Cl)n2nccc2n1,0%
Cc1noc(-c2cn(C3CCN(C(=O)c4cccc(Br)c4)CC3)nn2)n1,-18%
COCC1CN(C(C)=O)CC12CCN(S(=O)(=O)C(C)C)CC2 (stereo unspecified),-8%
Cc1ccc(-c2ccc3nnc(CNC(=O)C4CCCCC4)n3n2)cc1,10%
CC(C)c1noc(-c2cn(C3CCCN(C(=O)c4ccco4)C3)nn2)n1 (stereo unspecified),-3%
COc1ccc(C(=O)N2CCCC(c3nc(-c4cccnc4)no3)CCNC(=O)CC2)c(OC)n1 (stereo unspecified),9%
COc1ccccc1C(=O)Nc1ccc([C@@H](O)[C@H]2COCC(=O)N2Cc2ccccc2F)cc1,-5%
CN(C)C(=O)c1ccc(-c2nnc3ccc(NC(=O)C4CCC4)cn23)cc1,2%
CC(C)NC(=O)N1CCN(C(=O)C2CCCCC2)[C@@H](C(=O)N[C@@H](CC2CCCCC2)C(N)=O)C1,8%
CC(C)S(=O)(=O)N1CCCN(C(=O)C2CC2)C(c2ccccc2)CC(=O)NCC1 (stereo unspecified),2%
CCCC1c2nccn2CCCN1C(=O)c1cccn1C (stereo unspecified),3%
Cc1cccc(NC(=O)Cn2ccn3nc4c(c3c2=O)CCCC4)c1,-3%
Cc1ccc(NC(=O)Cn2nc3c(cc2=O)CCCCC3)c(C)c1,1%
O=C(COc1ccccc1)N1CCN(C(=O)c2nnn3c2COC(c2ccc(Cl)cc2)C3)CC1 (stereo unspecified),11µM*
Cc1cccc(NC(=O)Cn2c(=O)n(-c3ccccc3)c(=O)c3c2cc(C)n3C)c1,6%
COc1c(C)cccc1C(=O)N1CCC2(CC1)Nc1ccccc1NC2=O,-14%
Cc1ccc(C(=O)N2CCc3sc(C(=O)NCc4ccc(N(C)C)cc4)cc3C2)cc1,-22%
O=C(N[C@H]1CCN2C(=O)c3cc(-c4cccc(C(F)(F)F)c4)ccc3NC(=O)[C@@H]2C1)c1cnccn1,4%
CC(=O)Nc1ccc(C2(C(=O)NCc3cccc(C)c3)CCC2)cc1,4%
O=C(c1ccc(Cl)cc1)N1CCNc2cnc(Nc3ccccc3)nc2C1,32µM*
Cn1ncc(N2CCC(CNC(=O)c3cccc(-c4ncc[nH]4)c3)C2)cc1=O (stereo unspecified),1%
CCC(CC)C(=O)NC1CCN(c2cnn(C)c(=O)c2)CC1,3%
CC(C)c1ccc(NC(=O)c2cc3n(n2)CC(c2ccc(Cl)cc2)OC3)cc1 (stereo unspecified),10µM*
CC(C)c1ccc(NC(=O)CN2C(=O)NC(c3ccccc3Cl)C3=C2COC3=O)cc1 (stereo unspecified),-12%

7 entries drawn at random from those above:
SMILES,hNpr1 antagonist
Cc1ccc(NC(=O)Cn2nc3c(cc2=O)CCCCC3)c(C)c1,1%
Cc1cccc(NC(=O)Cn2c(=O)n(-c3ccccc3)c(=O)c3c2cc(C)n3C)c1,6%
FC(F)(F)c1cccc(-c2cc(-c3cccnc3)c3cncn3c2)c1,-17%[70.6 µM]
O=C(N[C@H]1CCN2C(=O)c3cc(-c4cccc(C(F)(F)F)c4)ccc3NC(=O)[C@@H]2C1)c1cnccn1,4%
COC(=O)c1ccc2nc(C[C@@H]3C[C@@H](C(C)C)[C@H](CNC4CCOCC4)C=C3C)[nH]c2c1,1%
CC(C)c1noc(-c2cn(C3CCCN(C(=O)c4ccco4)C3)nn2)n1 (stereo unspecified),-3%
CC(C)c1ccc(NC(=O)c2cc3n(n2)CC(c2ccc(Cl)cc2)OC3)cc1 (stereo unspecified),10µM*

New compounds follow.
SMILES,hNpr1 antagonist
CC1(C(=O)N2CCN(Cc3ccc4c(c3)OCO4)CC2)CCCCC(=O)N1 (stereo unspecified),-17%
O=S(=O)(Cc1ccccc1F)N1CCC(c2noc(-c3ccncc3)n2)C1 (stereo unspecified),-15%
O=C(Nc1cccc(C(F)(F)F)c1)O[C@@H]1CO[C@H]2[C@@H]1OC[C@@H]2n1cc(-c2ccccn2)nn1,?
COc1ccc(-c2noc(CC3CCN(C(=O)c4cc(OC)cc(OC)c4)CC3)n2)cc1,?
CC1(c2cccnc2)N(CCOc2ccccc2)C(=O)OC12CCN(C(=O)c1cccc(Cl)c1)CC2 (stereo unspecified),-5%
COc1ccc(-c2cnc3n2CC(C(=O)N2CCOCC2)CC3)cc1 (stereo unspecified),2%
Cn1cc(CN2CC[C@@H](c3ccc4c(c3)OCO4)[C@H](O)C2)c2ccccc21,0%
C=CCC(=O)N(CC1CCN(CCc2ccccc2C)CC1)C1CCCC1,-2%
O=C(c1ccoc1)N1CC(c2nnc(-c3ccncc3)o2)C2(CCOCC2)C1 (stereo unspecified),7%
CCN1C(=O)C2(CCN(S(=O)(=O)c3ccc(C(C)C)cc3)CC2)c2ccccc21,2%
CN(Cc1ccccc1)C(=O)c1noc(-c2ccc(F)cc2)n1,-8%
COc1ccc(NC(=O)N2CCCC3(C2)Nc2cccnc2NC3=NC2CCCC2)c(C)c1 (stereo unspecified),-1%
CC(C)NC(=O)NC[C@H]1OC[C@@H](NCc2cccc(C#N)c2)[C@@H]1O,9%[70.6 µM]
C(Cc1noc(C2CNC2)n1)OCC1CC1,-30%
COc1ccc(C(=O)NCc2nnc3ccc(-c4ccccc4)nn23)c(OC)n1,9%
Cc1ccccc1CN1CCOc2cc([S+](=O)([O-])Nc3nncs3)ccc2C1,-1%[70.6 µM]
O=C(c1cnccn1)N1CCc2nc(OCC3CC3)ccc2C1,4%
Cc1cccc(NC(=O)CCC2CCN(C(=O)CCCc3cccs3)CC2)c1,-9%
Cn1cc(CN2C[C@H](C(=O)Nc3ccc(F)cc3)C[C@@H]2c2cccc(C(F)(F)F)c2)cn1,-2%
CCNC(=O)N1CCCCCCNC(=O)[C@@H]2C[C@@H](c3nc(Cc4ccccc4)no3)C[C@@H]21,2%
O=C(CCC1CCN(S(=O)(=O)c2ccccc2F)CC1)NCCCN1CCOCC1,0%
COCC(=O)NC[C@H]1OC[C@@H](NCc2cccc(C#N)c2)[C@@H]1O,1%[70.6 µM]
CCOC(=O)C1(Cc2cccc(OC)c2)CCCN(C(=O)CSc2ccncc2)C1 (stereo unspecified),-3%
CC(C)(C)NC(=O)Cn1ccn2nc(-c3ccc(F)cc3)c(CO)c2c1=O,-2%
CN1CCN(c2nc3c(s2)CN(C(=O)CCC2CCCC2)CC3)CC1,-28%
O=C(c1cccnc1)N1C[C@@H]2OCC(=O)N(c3ccccc3)[C@@H]2C1,-12%[70.6 µM]
CCNC(=O)NCC1c2cc(OC)c(OC)cc2CCN1C(=O)Nc1ccccc1OC (stereo unspecified),0%
Cc1ccc(C2Cn3cnc(C(=O)N4CCC(C(=O)NC5CCCC5)CC4)c3CO2)cc1 (stereo unspecified),-10%
COc1ccc(C(=O)N2CCC(N3C(=O)CCC3C(=O)NCc3ccccc3)CC2)c(C)c1 (stereo unspecified),0%
CCOC(=O)C1CCN(C(=O)c2cc3c(n2C)CCN(Cc2ccccc2)C3)CC1,3%
CCN1C(=O)CN(C(=O)C2CCCC2)CC12CCOCC2,2%
CN(CC[C@H]1CN(C(=O)C(C)(C)C)CC[C@H]1CC(=O)O)c1ccccc1,-5%[70.6 µM]
Cc1nn(C(=O)CCCC(=O)N2CCC(c3nc(C4CCOCC4)no3)CC2)c2ccccc12,-5%
CS(=O)(=O)N1CCCN(C(=O)CN2CCCC2=O)CCNC(=O)CC1c1ccccc1 (stereo unspecified),-10%
CN1CCC(N[C@@H]2CO[C@H](CNC(=O)Nc3ccccc3)[C@H]2O)CC1,9%[70.6 µM]
CCCCOc1ccc(-c2nc(C3CC(=O)N(c4ccc(OC)cc4)C3)no2)cc1 (stereo unspecified),6%
Cc1ccc(N2C(=O)CSC23CCN(C(=O)C2CC2)CC3)cc1,-7%
O=C(O)CCn1ncc2cc(OC3CCN(C(=O)C4CCCC4)CC3)ccc21,1%[70.6 µM]
O=C(Nc1cccc(C(F)(F)F)c1)O[C@@H]1CO[C@H]2[C@@H]1OC[C@@H]2n1nnnc1-c1ccccc1,-20%
O=S(=O)(c1cnc[nH]1)N1CCC(c2nc(-c3ccccc3)no2)C1 (stereo unspecified),-7%
O=S(=O)(c1ccccc1Cl)N1CCCC1c1nncn1Cc1ccncc1 (stereo unspecified),2%
COCCNC(=O)[C@@H]1C[C@H](Oc2ccccc2)CN1C(=O)c1cccnc1C,0%
CCCCNC(=O)c1c(OCC(C)C)cc(=O)n2c1CCCCC2,-2%
O=C(C1CCN(C(=O)N2CC3CC(C2)[C@H]2CCCC(=O)N2C3)CC1)N1CC=C(c2ccccc2)CC1 (stereo partly specified),-1%
COc1cc(CNC(=O)[C@H]2CCC[C@H]2NC(=O)c2ccc(OC)nc2)cc(OC)c1,-1%
Cc1nc(N2CCCCC2)n(CC(=O)Nc2cccc(Cl)c2)c(=O)c1C,-7%
COCC1CN(C2CCC2)CC12CCN(Cc1ccc(OC)c(OC)c1)CC2 (stereo unspecified),-10%
